Compound activity as filed in PubChem.
Ecoli rRNA inh: inhibitors of bacterial rRNA selective over humanized ribosomes | hit rate 1.6% among 350,000 | GFP signal change (wild-type ribosome), % (concentration not given with the values) | E. coli WT GFP vs humanized-ribosome RFP mutants, fluorescence, 24 h; active compounds read low; DMSO median 0, no signal -100;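 active means significant combined selectivity score with lowered wild-type GFP, culture density cut under 30%, mutant RFP and density less affected; inactive means any of these conditions unmet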; further: one replicate is shown; some compounds called inactive have numbers as strong as hits
Bfl-1 A1 inh: inhibitors of the anti-apoptotic protein A1, read as caspase activation; MEF A1-2A-BIM cells, Caspase-Glo 3/7 luminescence, 3 h; percent of clofoctol response, vehicle zero; caspase activation, % (no concentration beside the values); hit rate 0.066% among 330,000; AID 2462;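 active means over half of replicate activation scores above 10%, or exactly half above 10 with the replicate mean above 10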;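 further: wells of about 30 µL received 50 nL stock; many hits fall short of the cut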
Calb FLC: C. albicans growth modulation with fluconazole | C. albicans CaCi-2 (fluconazole-resistant clinical isolate) + fluconazole, Alamar Blue growth, 48 h | growth inhibition, % (test concentration not listed) | hit rate 0.57% among 300,000;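 active means most replicates above 75%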;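 further: all wells also contain fluconazole at 8 µg/ml as a sub-toxic cotreatment; 0% = median of DMSO wells and 100% = median of geldanamycin control wells; wells of about 8 µL received 7.5 nL stock; the first replicate is given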
ALR inh: human ALR oxidase inhibition via reduced H2O2. P55789. purified ALR, DTT oxidation, H2O2 HRP-luminol luminescence. inhibition, % (concentration not given with the values). hit rate 3.8% among 290,000. AID 485317;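 active means mean and each replicate at 75% or more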;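 further: stock transfer was 7.5 nL into about 7.5 µL; 0% = neutral wells and 100% = wells with inactivated enzyme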
Target sequence (P55789 whole entry, looked up): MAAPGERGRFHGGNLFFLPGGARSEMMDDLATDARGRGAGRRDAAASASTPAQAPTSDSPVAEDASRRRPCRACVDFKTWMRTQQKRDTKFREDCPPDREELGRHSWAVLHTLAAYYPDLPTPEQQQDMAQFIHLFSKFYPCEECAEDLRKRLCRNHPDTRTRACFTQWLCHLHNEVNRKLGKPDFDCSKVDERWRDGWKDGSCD
T cruzi repl: blocks replication of Trypanosoma cruzi. inhibition, % (test concentration not listed). hit rate 1.4% among 300,000. AID 1885. T. cruzi beta-gal in NIH3T3, luminescence, 90 h;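 active means mean inhibition across valid replicates above about 55%, limit read from the data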;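 further: signal also drops with host cell toxicity which is not excluded here; 0% = plate median of DMSO wells and 100% = zero luminescence signal; higher percent means less beta-gal luminescence so fewer parasites; stock transfer was 50 nL into about 50 µL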
B2AR ag: activates human beta-2 adrenergic receptor causing internalization; P07550; Am2.2-beta2AR cells, FAP receptor internalization, flow cytometry; reference of the scale not given here; response, % (no concentration beside the values); hit rate 0.43% among 340,000;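 active means response above a set limit, near 3 SD of response in nonfluorescent compounds, cut at about 42% in these data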;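 further: stock transfer was 100 nL into about 11 µL; a reference agonist was the positive control; negative values mostly stem from fluorescent compounds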
Target sequence (P07550 whole entry, looked up): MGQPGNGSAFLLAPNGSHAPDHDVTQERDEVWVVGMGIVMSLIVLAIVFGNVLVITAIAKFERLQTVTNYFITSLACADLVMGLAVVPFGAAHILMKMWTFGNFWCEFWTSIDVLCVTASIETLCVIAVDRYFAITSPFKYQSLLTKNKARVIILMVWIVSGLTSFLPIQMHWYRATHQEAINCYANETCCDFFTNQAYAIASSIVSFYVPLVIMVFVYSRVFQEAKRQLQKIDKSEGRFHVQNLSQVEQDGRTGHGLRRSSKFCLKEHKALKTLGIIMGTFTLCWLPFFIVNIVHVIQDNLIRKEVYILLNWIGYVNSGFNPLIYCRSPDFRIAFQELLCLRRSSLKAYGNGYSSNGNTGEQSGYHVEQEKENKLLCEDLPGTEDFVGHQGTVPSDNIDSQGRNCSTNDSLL
LANA-H2A inh: blocks KSHV LANA binding to histone H2A/H2B. cell-free LANA-H2A/H2B peptide, fluorescence polarization. Q9QR71. AID 2629. inhibition, % (concentration not given with the values). hit rate 0.6% among 320,000; in the data active means inhibition mostly above about 10%, no sharp cut-off; inactive means mostly below about 6.7%;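 further: stock transfer was 7.5 nL into about 10 µL; 0% = median of vehicle wells and 100% = median of positive control wells; one replicate is shown; the record names a cut of 25% in any replicate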
Beta apoptosis: beta cell apoptosis inhibition | protection from apoptosis, % (test concentration not listed) | INS-1E cytokine-induced death, ATP luminescence, 48 h; percent of positive-control rescue, neutral wells zero | hit rate 0.8% among 300,000;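 active means all replicates at 75% or more, or half of them and the mean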;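 further: 0% = cytokine-treated negative control wells and 100% = positive control rescue; higher means more ATP so stronger rescue from cytokine killing; wells of about 40 µL received 100 nL stock; the first replicate is given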
Ecoli rRNA inh OD600: recorded beside Ecoli rRNA inh, whose call it bears; OD600 change, %; measured here: OD600 growth;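 optical density of the mix in the first replicate; 0 = DMSO median and -100 = no signal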
Ecoli rRNA inh RFP: further read-out of Ecoli rRNA inh, marked with its call; RFP signal change, %; measured here: RFP humanized mutant strains;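 first replicate; 0 = DMSO median and -100 = no signal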
Active calls of the source: *. The list is partial (hit frequency here may not be typical).

Screening CCc1cc(-c2[nH]ncc2-c2ccc([N+](=O)[O-])cc2)c(O)cc1OC returned Bfl-1 A1 inh 1.5, Calb FLC 35, ALR inh -4, T cruzi repl 4, B2AR ag 1, LANA-H2A inh 1.6 and Beta apoptosis -12.
COc1ccc(Cn2c(=O)[nH]c3cc(C(=O)Nc4ccc(N5CCN(C)CC5)cc4)ccc32)cc1 was read as Bfl-1 A1 inh -0.5, Calb FLC 6, ALR inh -12, T cruzi repl 34, B2AR ag -1, LANA-H2A inh -0.2 and Beta apoptosis -1.
NC(=O)CCN1CCN(CCOC2Cc3cc(Cl)ccc3Sc3ccccc32)CC1 (stereo not drawn) was read as Bfl-1 A1 inh -0.1, Calb FLC -12, ALR inh -2, T cruzi repl 28, B2AR ag 2, LANA-H2A inh -0.3 and Beta apoptosis 1.
Screening COc1ccc(/C=C2\SC(=S)N(CCCC(=O)N3CCOCC3)C2=O)cc1OC returned Ecoli rRNA inh 5, Bfl-1 A1 inh -0.1, Calb FLC 14, ALR inh 1, T cruzi repl 1, B2AR ag 4, LANA-H2A inh 0.4, Beta apoptosis -9, Ecoli rRNA inh OD600 5 and Ecoli rRNA inh RFP -0.6.
For Cc1ccccc1C(C(=O)NCc1ccccc1)N(Cc1ccco1)C(=O)c1ccccn1 (stereo not drawn) the results were Bfl-1 A1 inh 0.0, Calb FLC -10, ALR inh 1, T cruzi repl 22, B2AR ag 24, LANA-H2A inh 1.6 and Beta apoptosis -6.
COc1ccc(-n2c(C)c(C(C)=O)c3cc(OCC(N)=O)ccc32)cc1 was read as Ecoli rRNA inh -16, Bfl-1 A1 inh -0.3, Calb FLC 49, ALR inh -10, T cruzi repl 3, B2AR ag 1, LANA-H2A inh 1.2, Beta apoptosis -5, Ecoli rRNA inh OD600 -23 and Ecoli rRNA inh RFP -13.
`COC(=O)c1sccc1NC(=S)OC` gave Ecoli rRNA inh 6, Bfl-1 A1 inh 0.7, Calb FLC -11, ALR inh 0, T cruzi repl -13, B2AR ag 0, LANA-H2A inh -1.7, Beta apoptosis 2, Ecoli rRNA inh OD600 5 and Ecoli rRNA inh RFP -0.6.
CCN(CC)CCNC(=O)c1ccc(NC(=O)C2CCN(S(=O)(=O)c3ccc4c(c3)OCCO4)CC2)cc1 was read as Ecoli rRNA inh 5, Bfl-1 A1 inh -1.5, Calb FLC -4, ALR inh 1, T cruzi repl -15, B2AR ag 4, LANA-H2A inh -2.6, Beta apoptosis 0, Ecoli rRNA inh OD600 2 and Ecoli rRNA inh RFP -0.7.
Screening Cc1cccc(N2CCN(C(=O)CCCn3c(=O)[nH]c4ccsc4c3=O)CC2C)c1 (stereo not drawn) returned Ecoli rRNA inh -18, Bfl-1 A1 inh -0.2, Calb FLC 27, ALR inh 98*, T cruzi repl -7, B2AR ag 2, LANA-H2A inh -1.9, Beta apoptosis -7, Ecoli rRNA inh OD600 -17 and Ecoli rRNA inh RFP 4.8.
C/C(=N/NC(=O)c1cccs1)c1ccc(NC(=O)COc2ccc(Cl)cc2)cc1 was read as Bfl-1 A1 inh 1.0, Calb FLC 3, ALR inh 2, T cruzi repl -18, B2AR ag 3, LANA-H2A inh 0.1 and Beta apoptosis -6.
C[C@@H]1CN([C@H](C)CO)C(=O)Cc2cc(NC(=O)CCC(F)(F)F)ccc2O[C@@H]1CN(C)C(=O)NC1CCCCC1 was read as Ecoli rRNA inh 3, Bfl-1 A1 inh 0.7, ALR inh -2, B2AR ag -8, LANA-H2A inh -0.1, Beta apoptosis 4, Ecoli rRNA inh OD600 -1 and Ecoli rRNA inh RFP -0.8.
Cc1occc1C(=O)Nc1ccc([N+](=O)[O-])cc1Br was read as Ecoli rRNA inh 7, Bfl-1 A1 inh -0.2, Calb FLC 18, ALR inh -9, T cruzi repl 10, B2AR ag -6, LANA-H2A inh 2.8, Beta apoptosis 1, Ecoli rRNA inh OD600 12 and Ecoli rRNA inh RFP 1.8.
Screening Cc1cc(Br)c(S(=O)(=O)NCCN2CCOCC2)cc1C returned Bfl-1 A1 inh 0.1, Calb FLC -14, ALR inh -16, T cruzi repl 6, B2AR ag 0, LANA-H2A inh 5.6 and Beta apoptosis 0.
Screening CCOP(=O)(c1ccccc1)C1(O)CCCCC1 (stereo not drawn) returned Bfl-1 A1 inh -0.1, Calb FLC -2, T cruzi repl -13, B2AR ag -6, LANA-H2A inh 4.0 and Beta apoptosis 0.
For CCNC(=O)C1CCCN1S(=O)(=O)c1ccc(C)cc1 (stereo not drawn) the results were Ecoli rRNA inh 8, Bfl-1 A1 inh -0.6, Calb FLC -24, T cruzi repl -3, B2AR ag 0, LANA-H2A inh 4.1, Beta apoptosis -5, Ecoli rRNA inh OD600 11 and Ecoli rRNA inh RFP 0.9.
Screening COc1ccc(CCNC(=O)CSc2nn(-c3ccccc3)c(=S)s2)cc1OC returned Bfl-1 A1 inh 0.2, Calb FLC -9, ALR inh -19, T cruzi repl 1, B2AR ag -1, LANA-H2A inh 2.9 and Beta apoptosis 0.
Screening Cn1ccnc1SCC(=O)NCC(=O)Nc1ccc(F)c(F)c1F returned Ecoli rRNA inh 6, Bfl-1 A1 inh 1.6, ALR inh -3, B2AR ag -2, LANA-H2A inh -4.8, Beta apoptosis 2, Ecoli rRNA inh OD600 13 and Ecoli rRNA inh RFP -3.0.
COc1ccc(O)c(/C=N/NC(=O)c2cc(=O)[nH]c3ccccc23)c1 was read as Ecoli rRNA inh -1, Bfl-1 A1 inh 1.7, Calb FLC -17, ALR inh 31, T cruzi repl 1, B2AR ag 5, LANA-H2A inh -0.9, Beta apoptosis 32, Ecoli rRNA inh OD600 1 and Ecoli rRNA inh RFP 0.7.
`COc1c(C)cccc1C(=O)Nc1ccc(CN2CCCCC2)cc1` gave Bfl-1 A1 inh 0.1, Calb FLC -1, ALR inh 94*, T cruzi repl 0, B2AR ag 1, LANA-H2A inh 4.8 and Beta apoptosis 8.
For COc1ccc(NC(=O)CC2C(=O)N(c3ccc(Cl)cc3)C(=S)N2CCc2ccccn2)cc1 (stereo not drawn) the results were Ecoli rRNA inh -14, Bfl-1 A1 inh 0.0, Calb FLC 36, ALR inh 98*, T cruzi repl 2, B2AR ag -6, LANA-H2A inh -3.4, Beta apoptosis -3, Ecoli rRNA inh OD600 -18 and Ecoli rRNA inh RFP 10.

By substructure, those above containing bromine (two)
Cc1occc1C(=O)Nc1ccc([N+](=O)[O-])cc1Br was read as Ecoli rRNA inh 7, Bfl-1 A1 inh -0.2, Calb FLC 18, ALR inh -9, T cruzi repl 10, B2AR ag -6, LANA-H2A inh 2.8, Beta apoptosis 1, Ecoli rRNA inh OD600 12 and Ecoli rRNA inh RFP 1.8.
Screening Cc1cc(Br)c(S(=O)(=O)NCCN2CCOCC2)cc1C returned Bfl-1 A1 inh 0.1, Calb FLC -14, ALR inh -16, T cruzi repl 6, B2AR ag 0, LANA-H2A inh 5.6 and Beta apoptosis 0.

Continuation:
CCOc1ccc(N2C(=O)/C(=C\c3ccc(O)c(OC)c3)S(=O)(=O)C2c2cccc([N+](=O)[O-])c2)cc1 (stereo not drawn) was read as Ecoli rRNA inh 11, Bfl-1 A1 inh 3.6, Calb FLC 0, ALR inh -2, T cruzi repl -7, B2AR ag 8, LANA-H2A inh 1.6, Beta apoptosis -5, Ecoli rRNA inh OD600 5 and Ecoli rRNA inh RFP -1.2.
For S=c1[nH]nc(C2CCCCC2)n1/N=C/C(Cl)=C\c1ccccc1 the results were Bfl-1 A1 inh -1.1, Calb FLC 8, ALR inh 16, T cruzi repl -79, B2AR ag -8, LANA-H2A inh 5.3 and Beta apoptosis -8.
`Cc1ccccc1Cn1c(NC2CCCC2)nc2c1c(=O)[nH]c(=O)n2C` gave Ecoli rRNA inh 33, Bfl-1 A1 inh -0.6, Calb FLC -8, ALR inh 1, T cruzi repl 11, B2AR ag -6, LANA-H2A inh 2.7, Beta apoptosis -2, Ecoli rRNA inh OD600 16 and Ecoli rRNA inh RFP 6.5.
`Cc1nn(-c2ccccc2)c(N)c1C(c1ccc(C(C)C)cc1)c1c(C)nn(-c2ccccc2)c1N` gave Bfl-1 A1 inh 0.4, Calb FLC -2, T cruzi repl 30, B2AR ag 8 and Beta apoptosis 97*.
Screening Clc1nssc1=Nc1ccc(Br)cc1 returned Ecoli rRNA inh -52, Calb FLC -18, T cruzi repl -97, B2AR ag 5, Ecoli rRNA inh OD600 -51 and Ecoli rRNA inh RFP -16.
`CCn1c2ccccc2c2cc(N=C3SC(CC(=O)Nc4ccccc4)C(=O)N3C)ccc21` (stereo not drawn) gave Bfl-1 A1 inh -0.5, Calb FLC -11, ALR inh -18, T cruzi repl 24, B2AR ag 5, LANA-H2A inh 4.7 and Beta apoptosis -25.
For CCOC(=O)c1c(C)n(C)c2ccc(OC)c(NS(=O)(=O)c3ccc(Cl)s3)c12 the results were Bfl-1 A1 inh -1.5, Calb FLC 22, ALR inh -7, T cruzi repl 17, B2AR ag -2, LANA-H2A inh 0.1 and Beta apoptosis -4.
Screening O=C(CN1CCN(CC(=O)Nc2ccccc2F)CC1)Nc1cccc(F)c1 returned Ecoli rRNA inh 12, Calb FLC -5, T cruzi repl -9, B2AR ag -3, Ecoli rRNA inh OD600 27 and Ecoli rRNA inh RFP 2.5.
For CCO[C@@H]1OC(C(=O)N2CCN(Cc3ccccc3)CC2)=C[C@H](c2ccc(C(F)(F)F)cc2)[C@H]1CCCO the results were Ecoli rRNA inh -47, Bfl-1 A1 inh -1.7, Calb FLC 3, T cruzi repl 47, B2AR ag 2, LANA-H2A inh -1.7, Beta apoptosis 4, Ecoli rRNA inh OD600 -71 and Ecoli rRNA inh RFP -8.8.
CCCCCn1c2c(c(=N)c3ccccc31)CCC2 was read as Ecoli rRNA inh -32, Bfl-1 A1 inh -0.7, Calb FLC -4, ALR inh -7, T cruzi repl 59*, B2AR ag -13, LANA-H2A inh -4.1, Beta apoptosis 23, Ecoli rRNA inh OD600 -39 and Ecoli rRNA inh RFP -3.0.

Some of these compounds in order of formula weight, descending:
Screening O=C(CN1CCN(CC(=O)Nc2ccccc2F)CC1)Nc1cccc(F)c1 returned Ecoli rRNA inh 12, Calb FLC -5, T cruzi repl -9, B2AR ag -3, Ecoli rRNA inh OD600 27 and Ecoli rRNA inh RFP 2.5.
Screening Cc1cc(Br)c(S(=O)(=O)NCCN2CCOCC2)cc1C returned Bfl-1 A1 inh 0.1, Calb FLC -14, ALR inh -16, T cruzi repl 6, B2AR ag 0, LANA-H2A inh 5.6 and Beta apoptosis 0.
Screening CCc1cc(-c2[nH]ncc2-c2ccc([N+](=O)[O-])cc2)c(O)cc1OC returned Bfl-1 A1 inh 1.5, Calb FLC 35, ALR inh -4, T cruzi repl 4, B2AR ag 1, LANA-H2A inh 1.6 and Beta apoptosis -12.
